Bioassay records (PubChem BioAssay)
RN4220 kill: growth inhibition of S. aureus RN4220, primary screen, OD600; 16 h; inhibition, % (no concentration beside the values); 0.33% of 330,000 active;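 active means z-score of -3 or lower and OD600 up to 0.18 on both plates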;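 further: plate controls were untreated cells for no effect and reference antibiotic for full effect; stock transfer was 100 nL into about 80 µL; one replicate is shown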
BJeLR lethal: MLPCN primary cell-based screen for lethality selective to Ras in HRASV12 cells; 0.17% of 300,000 active; AID 1554, 2009; inhibition, % (test concentration not listed); BJeLR (HRASV12) viability, CellTiter-Glo ATP luminescence, 48 h; reference of the scale not given here;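 active means replicate mean above 50%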;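 further: 50 nL library stock added to about 25 µL; numbers are from one replicate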
Autofluor counter: flagged as autofluorescent in microsphere protease counterscreen; compound autofluorescence counterscreen, microsphere flow cytometry; hits give high values; fluorescence intensity (test concentration not listed); 3.1% of 360,000 active;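 active means at least 3 SD above the mean of all compounds, about 16000 in these data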;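 further: 100 nL of 1 mM stock went into each well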
Sa ugtP lethal: growth inhibition of ugtP-null S. aureus, primary screen, RN4220 ugtP deletion, OD600; 0.54% of 330,000 active; growth inhibition, % (test concentration not listed); AID 1259309, 2017; 16 h; some inactives read as strong as hits;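 active means z-score under -3 and OD600 up to 0.15 on both plates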;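 further: plate controls were untreated wells for no effect and antibiotic for full effect; wells of about 80 µL received 100 nL stock; the first replicate is given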
Mtb hypoxia rep: PubChem AID 1159583. M. tuberculosis hypoxia-regulated fluorescent reporter, fluorescence. fluorescence inhibition, % (no concentration beside the values). 0.1% of 300,000 active;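 active means 35 to 45% if threefold the growth effect, above 45% if 1.5-fold the growth effect; inactive means the rest, general growth blockers included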;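 further: wells of about 50 µL received 100 nL stock; 0% = vehicle wells and 100% = reference inhibitor wells; whole bacteria with a GFP reporter of the hypoxia response; strong numbers were not always called active; many hits fall short of the cut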
PrP 5UTR inh: inhibition of PrP 5' UTR reporter expression; inhibition, % (concentration not given with the values); cell-based PrP 5' UTR mRNA reporter, plate reader; 0.35% of 340,000 active;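 active means every replicate at 50% or more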;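 further: 0 = median of the neutral control wells; tested in H4 reporter cells; numbers are from one replicate; inactives centre near -14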
Mtb hypoxia rep growth: recorded beside Mtb hypoxia rep, whose call it bears; growth inhibition, %; measured here: M. tuberculosis growth (absorbance);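 0% = vehicle and 100% = reference antibiotic; read after six days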
The depositor's hits bear a star; x = not tested or not shown.

SMILES	RN4220 kill	BJeLR lethal	Autofluor counter	Sa ugtP lethal	Mtb hypoxia rep	Mtb hypoxia rep growth	PrP 5UTR inh
CN1C(=O)C(CCC(=O)O)NC1=S (stereo unspecified)	4.4	1.6	4397	-1.7	15.6	6.4	-9.6
Cc1cc(/C=N/NC(=O)c2ccsc2)c(C)n1-c1cnccn1	x	1.9	2057	x	x	x	-16.6
O=C(NCC1CCCO1)c1cccc(S(=O)(=O)Nc2ccc(SC(F)F)cc2)c1 (stereo unspecified)	2.3	x	3647	11.7	13.6	6.2	-27.2
N#CC1=C(N)C2=CCCC[C@H]2[C@H](c2cccc(F)c2)C1(C#N)C#N	17.6	-12.6	2185	-18.4	7.5	3.6	-21.8
Cc1cc(C)cc(C(=O)OCC(=O)N2CCCCCC2)c1	2.6	x	3838	4.4	8.5	6.5	-26.5
CCOC(=O)C1CCN(S(=O)(=O)c2ccc3c4c(cccc24)C(=O)N3)CC1	5.1	-2.4	6168	-11.2	x	x	-10.7
COc1ccccc1NC(=S)N1CCC(C(=O)c2ccc(F)cc2)CC1	-1.7	-6.3	3295	10.5	4.3	12.9	16.2
C[C@H](NC(=O)c1nc[nH]c1C(=O)NC1CCN(C(=O)OC(C)(C)C)CC1)C(=O)OC(C)(C)C	x	2.8	4005	x	x	x	-18.5
COc1ccc(Nc2nc(N)nc(CSc3nccn3C)n2)cc1	7.8	2.3	2529	-4.4	8.9	2.5	-82.4
CCOC(=O)c1ccc(NC(=S)NN)cc1	-5.1	-9.3	3494	1.4	11.1	2.5	9.9
COc1cccc(-c2nc(COc3ccc(Cl)cc3Cl)no2)c1	4.6	-14.1	6168	24.5	4.3	10.7	-11.8
O=C(Nc1ccc(Cl)cc1)Nc1ccccc1CC[N+](=O)[O-]	-4.8	-1.9	4776	-23.4	1.9	-5.6	-14.2
O=C(Nc1ccccc1)C1=C[C@@H](C2CCCCC2)C[C@@H](OCc2ccc(CO)cc2)O1	x	-11.8	3603	x	x	x	-18.7
CN(C)CCC#CC1(O)c2ccccc2-c2ccccc21	6.5	22.9	3406	14.5	13.8	5.5	-23.0
COc1ccc(-n2c(SCC(N)=O)nnc2-c2ccc(NS(=O)(=O)c3ccc(C)cc3)cc2)cc1	-5.1	17.5	10438	-22.4	-12.5	5.6	9.5
Cn1nnnc1SCCNCc1ccc(Cl)cc1	3.3	0.9	17333*	6.0	9.5	9.0	-12.5
Cc1coc2c1c(C)cc1oc(=O)c(CC(=O)N[C@@H](C)C(=O)O)c(C)c12	2.5	0.6	3534	2.3	-8.3	6.1	-14.1
CC(C)OC(=O)c1cccc(C(=O)O)n1	2.6	-5.3	3498	6.1	1.2	7.2	-18.1
CC(C)N(C)C1CCN(S(=O)(=O)c2ccc(-c3ccc(=O)[nH]n3)s2)CC1	-2.2	14.9	5633	-5.2	-0.7	2.9	-12.1
CCCc1nnc(NC(=O)CCN2C(=O)c3ccccc3C2=O)s1	8.2	-12.4	9126	-12.5	13.5	2.7	-18.4
CCOc1cc(/C=C2\SC(=Nc3ccc(CC)cc3)NC2=O)ccc1OCC(=O)O	5.7	-7.1	3940	-1.6	5.6	-5.3	-8.9
Cc1cc(NC(=O)c2ccc3c(c2)OCO3)no1	5.6	9.5	11640	-0.3	11.0	3.9	-61.3
COc1cc2c(-c3ccccc3O)nc3c(c(C)nn3-c3ccccc3)c2cc1OC	6.6	14.0	2583	3.4	0.7	-2.5	0.4
CCC1(C)Cc2c(sc(NC(=S)NC(=O)c3ccccc3)c2C#N)CO1 (stereo unspecified)	0.3	-2.7	2552	15.7	-16.6	0.1	-20.6
CN(C)CCN(Cc1ccccc1)S(=O)(=O)c1ccc2c(c1)n(C)c(=O)c(=O)n2C	2.1	4.5	4101	-0.9	-5.1	-9.6	-13.7
COCCn1c(SCC(=O)Nc2ccc3c(c2)OCCO3)nnc1C(C)C	-3.8	2.1	3796	4.2	-9.3	-15.0	0.4
O=C(NCc1ccc(OC(F)(F)F)cc1)C1CC2Cn3c(nc4ccccc43)C2N1Cc1ccccc1 (stereo unspecified)	-4.5	0.6	3329	5.7	7.4	18.3	-8.2
CC1(C)CC2c3cccc(C(=O)O)c3C(=O)N2c2c1ccc1ccccc21 (stereo unspecified)	14.7	7.9	2352	-9.8	12.8	13.5	-0.4
CC12CC(NC(=O)N1c1cccc(C(=O)N3CCN(c4ccccc4F)CC3)c1)c1ccccc1O2 (stereo unspecified)	-1.3	1.0	4679	-3.1	x	x	-17.6
Cc1ccc(N2CC(NS(=O)(=O)c3cccs3)CC2=O)cc1C (stereo unspecified)	-0.8	-1.8	5861	-1.4	-5.4	5.9	-82.6

Overlap with the part before: five entries, then new ones.
SMILES	RN4220 kill	BJeLR lethal	Autofluor counter	Sa ugtP lethal	Mtb hypoxia rep	Mtb hypoxia rep growth	PrP 5UTR inh
COCCn1c(SCC(=O)Nc2ccc3c(c2)OCCO3)nnc1C(C)C	-3.8	2.1	3796	4.2	-9.3	-15.0	0.4
O=C(NCc1ccc(OC(F)(F)F)cc1)C1CC2Cn3c(nc4ccccc43)C2N1Cc1ccccc1 (stereo unspecified)	-4.5	0.6	3329	5.7	7.4	18.3	-8.2
CC1(C)CC2c3cccc(C(=O)O)c3C(=O)N2c2c1ccc1ccccc21 (stereo unspecified)	14.7	7.9	2352	-9.8	12.8	13.5	-0.4
CC12CC(NC(=O)N1c1cccc(C(=O)N3CCN(c4ccccc4F)CC3)c1)c1ccccc1O2 (stereo unspecified)	-1.3	1.0	4679	-3.1	x	x	-17.6
Cc1ccc(N2CC(NS(=O)(=O)c3cccs3)CC2=O)cc1C (stereo unspecified)	-0.8	-1.8	5861	-1.4	-5.4	5.9	-82.6
COc1cc2oc3cc(C#Cc4ccc(N)cc4)ccc3c(=O)c2cc1OC	-4.0	3.4	4496	-0.9	13.8	10.5	-3.7
Cc1ccc(S(=O)(=O)NN2C(=O)c3ccccc3NC2c2ccccc2)cc1 (stereo unspecified)	7.7	7.3	4647	-0.2	14.0	4.6	-31.6
Cc1cccc(C)c1NC(=O)CSc1nnc(-c2ccco2)n1N	1.3	-1.9	21789*	-4.1	-1.3	12.1	-27.1
Oc1ccc(CC2(N3CCCC3)CCCCC2)cc1	1.0	-0.9	5433	6.9	11.6	-7.9	-35.3
CCc1ccccc1NC(=S)N(CCOC)C(C)c1ccco1 (stereo unspecified)	5.4	19.9	5999	6.4	9.2	10.7	-8.1
CCCS(=O)(=O)c1nc(S(=O)(=O)c2ccc(C)cc2)c(NCCCN2CCCC2=O)s1	1.8	-1.2	5175	5.7	2.1	3.8	-20.9
CCN(CC)C(=O)Cn1cc(S(=O)(=O)CC(=O)NCc2ccccc2)c2ccccc21	0.4	1.8	5698	1.1	-0.6	10.3	9.2
Cc1cccc(C)c1Nc1nnc(SCC(=O)NC2CCS(=O)(=O)C2)s1 (stereo unspecified)	-3.1	0.2	2085	-4.7	-10.3	7.5	-3.1
Cc1ccsc1C1C2=C(CC(C)(C)CC2=O)Nc2ncnn21 (stereo unspecified)	8.3	-5.5	5800	-7.3	-6.6	-2.8	-2.9
Cc1ccc([N+](=O)[O-])cc1N=Nc1c(C)[nH]n(C(N)=S)c1=O	10.7	2.6	3375	18.2	14.8	3.1	-15.7
COC(=O)[C@@]1(C)CC[C@]2(C)CC[C@@]3(C)C(=CC(=O)C4[C@@]5(C)CC[C@H](O)C(C)(C)[C@@H]5CC[C@]43C)[C@H]2C1 (stereo partly specified)	x	-6.7	3162	x	x	x	-1.3
Cn1cc(C(=O)c2ccc(Cl)cc2Cl)cc1C(=O)NN=C(N)COc1ccccc1	8.2	x	x	-11.1	1.3	5.0	x
O=C(CCS(=O)(=O)c1ccc(Br)s1)NC1CCCC1	0.0	-5.6	9491	3.4	7.9	4.5	-18.9
NC(=O)CC(NC(=O)c1ccccc1)c1ccc(NCc2ccccc2)c([N+](=O)[O-])c1 (stereo unspecified)	2.7	8.8	3320	2.4	7.0	0.3	-21.0
CC(C)CC1NC(=O)N(CC(=O)Nc2ccc3c(c2)CCC3)C1=O (stereo unspecified)	2.2	0.2	4377	2.1	12.2	5.4	-77.7

Some of the entries so far, as labelled records:
> CCc1ccccc1NC(=S)N(CCOC)C(C)c1ccco1 (stereo unspecified)
  RN4220 kill = 5.4	BJeLR lethal = 19.9	Autofluor counter = 5999	Sa ugtP lethal = 6.4	Mtb hypoxia rep = 9.2	Mtb hypoxia rep growth = 10.7	PrP 5UTR inh = -8.1
> CCCS(=O)(=O)c1nc(S(=O)(=O)c2ccc(C)cc2)c(NCCCN2CCCC2=O)s1
  RN4220 kill = 1.8	BJeLR lethal = -1.2	Autofluor counter = 5175	Sa ugtP lethal = 5.7	Mtb hypoxia rep = 2.1	Mtb hypoxia rep growth = 3.8	PrP 5UTR inh = -20.9
> CCN(CC)C(=O)Cn1cc(S(=O)(=O)CC(=O)NCc2ccccc2)c2ccccc21
  RN4220 kill = 0.4	BJeLR lethal = 1.8	Autofluor counter = 5698	Sa ugtP lethal = 1.1	Mtb hypoxia rep = -0.6	Mtb hypoxia rep growth = 10.3	PrP 5UTR inh = 9.2

Looked up above:
Mtb hypoxia rep growth, `Cc1ccc([N+](=O)[O-])cc1N=Nc1c(C)[nH]n(C(N)=S)c1=O` → 3.1
Sa ugtP lethal, `CCN(CC)C(=O)Cn1cc(S(=O)(=O)CC(=O)NCc2ccccc2)c2ccccc21` → 1.1
Mtb hypoxia rep, `Cn1cc(C(=O)c2ccc(Cl)cc2Cl)cc1C(=O)NN=C(N)COc1ccccc1` → 1.3
Sa ugtP lethal, `Cc1ccsc1C1C2=C(CC(C)(C)CC2=O)Nc2ncnn21` (stereo unspecified) → -7.3

Continuation:
SMILES	RN4220 kill	BJeLR lethal	Autofluor counter	Sa ugtP lethal	Mtb hypoxia rep	Mtb hypoxia rep growth	PrP 5UTR inh
O=C(CNC(=O)c1cccnc1)N=Nc1c(O)[nH]c2c(Br)cc(Br)cc12	x	6.2	5278	x	x	x	1.1
Cc1ccc(-c2nnc(N3CC(C)OC(C)C3)c3ccccc23)cc1 (stereo unspecified)	0.0	-2.1	2084	-3.4	9.0	3.6	-17.4
O=C(NCc1ccco1)C1CCC(N2C(=O)C3C4CCC(C4)C3C2=O)CC1 (stereo unspecified)	2.0	-3.5	4789	3.6	2.8	-3.9	-7.2
Cc1cc(C(=O)N(C2CCCCC2)C2CCCCC2)no1	4.5	1.7	8185	5.7	9.8	8.3	-8.8
Cc1nc(C(=O)NC2CCCCC2)sc1C1(C)CC(c2cccc([N+](=O)[O-])c2)=NO1 (stereo unspecified)	-7.5	-15.8	3785	8.1	2.0	5.8	-15.4
CCOc1ccc(S(=O)(=O)Nc2ccc(S(=O)(=O)N3CCCC3)cc2)cc1	5.0	2.2	5169	-4.4	8.7	6.2	-40.5
CCN1C(=C(C#N)C#N)C=Cc2ccccc21	2.3	2.8	4405	10.5	1.7	4.6	-29.8
CCCCn1c(-c2ccccc2)cnc1SCC(=O)NCCc1ccc(OC)c(OC)c1	7.3	3.0	13179	-6.0	-0.8	6.0	-64.4
CCc1nc(N(CC)CC)c2oc3ccccc3c2n1	-10.8	8.3	3487	-21.1	3.6	-0.8	-7.6
CCc1ccc(CCC(=O)Nc2ccc(Cl)cc2)o1	5.2	2.5	x	9.8	8.8	1.5	-22.7
COc1ccc2c(c1)OC(=O)CC2c1cc(OC)c(OC)c(OC)c1 (stereo unspecified)	4.5	x	3832	2.6	3.0	7.0	-26.0
Cc1nc2ccc(NC(=O)Cc3c(F)cccc3Cl)cc2s1	5.2	4.0	3696	1.7	6.8	0.6	-65.4
COC(CN(C(=O)CCl)C(C(=O)NC1CCCCC1)c1ccc(C)cc1)OC (stereo unspecified)	3.0	4.8	2721	-3.0	10.4	10.5	-17.6
O=C(CSc1ccc2nnc(-c3ccc(F)cc3)n2n1)NCC1CCCO1 (stereo unspecified)	2.8	-13.2	15978	15.2	6.6	3.2	-9.5
CC1CC(=NNc2ccc([N+](=O)[O-])cc2[N+](=O)[O-])CC(C)(C)C1 (stereo unspecified)	1.7	x	x	28.7	-0.8	3.2	x
O=C(C=Cc1ccccc1Cl)c1cccnc1	20.1	x	x	-3.0	17.4	21.6	x
CC(Cc1ccccc1)=NNC(=O)CNC(=O)c1ccc(C(C)(C)C)cc1	-2.2	x	x	2.1	-11.3	-6.9	x
COc1ccc(CNC(=O)c2cccc(NC(=O)c3ccccc3)c2)cc1	0.6	-3.4	2804	0.9	-8.0	1.1	-9.3
CCn1c(SCC(=O)Nc2ccc(NC(C)=O)cc2)nc2c1c(=O)n(C)c(=O)n2C	1.9	-4.1	6388	3.8	-5.4	-7.3	0.8
